High-throughput results deposited in PubChem by National Center for Advancing Translational Sciences (NCATS).
FEN1 inhibitor: qHTS Assay for the Inhibitors of Human Flap endonuclease 1 (FEN1). 0.35% of 390,000 active. Potency, µM (series often up to 114 µM), without a hit: at the top dose activity change, negative = inhibition, actives largely listed as inhibitors. P39748. Recombinant FEN1 flap cleavage, fluorescence, 15 min; also: nearly all actives have a fitted effect of over 65% in size
Target sequence (P39748 whole entry, looked up): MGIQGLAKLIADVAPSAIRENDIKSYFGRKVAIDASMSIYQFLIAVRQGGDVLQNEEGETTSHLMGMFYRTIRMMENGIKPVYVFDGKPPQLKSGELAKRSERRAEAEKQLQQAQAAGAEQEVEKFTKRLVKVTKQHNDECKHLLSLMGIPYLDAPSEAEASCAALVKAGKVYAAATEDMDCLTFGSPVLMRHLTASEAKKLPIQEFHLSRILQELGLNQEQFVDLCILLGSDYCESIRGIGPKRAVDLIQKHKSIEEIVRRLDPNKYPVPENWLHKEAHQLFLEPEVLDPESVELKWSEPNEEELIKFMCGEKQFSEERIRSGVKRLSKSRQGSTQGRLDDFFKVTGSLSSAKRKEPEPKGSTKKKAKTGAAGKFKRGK
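FEN1 at 10 nM preincubated with compounds 15 min at room temperature, then flap DNA substrate added at 50 nM final. Signal read at 0 and 15 min; concentration-response fitted with four-parameter Hill equation.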
N370S GC: qHTS Assay for Inhibitors and Activators of N370S glucocerebrosidase as a Potential Chaperone Treatment of Gaucher Disease | N370S GC spleen homogenate, 4MU-glucoside fluorescence | AID 2101, 2009 | Potency, µM (series often up to 59.4 µM), inactives show top-dose activity change, negative = inhibition, hits mostly inhibitors | Lysosomal acid glucosylceramidase (Homo sapiens), P04062 | 0.092% of 330,000 active;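 also: 0% = full enzyme activity and -100% = no enzyme basal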
Numbers without * were called inactive; ? = inconclusive; . = not tested or not shown; & = joins results of further samples. Calls follow the shape of the dose curve; as a rule, active = well fitted curve in the direction sought with a large enough effect; inconclusive = small, poorly fitted or top-dose-only effect, or another doubt; inactive = no such curve, though single readings can be large; an effect the other way counts as inactive or inconclusive. Unless noted, % is scaled to controls: 0 for no effect and ±100 for the full control effect; potency is read from the fitted curve at half-maximal effect. Only part of the results is shown; most or all hits stand in other tables.

1) CCCN(Cc1ccc(N(C)C)cc1)CC1CC1
2) CN(C)S(=O)(=O)Oc1cc(Cl)ccc1C(=O)Nc1ccc(F)cc1F
3) CCCCOC(=O)CNc1n[nH]c(=S)[nH]c1=O
4) COc1ccc(C(=O)NC2CCc3ccccc32)cc1OC1CCN(C(C)C)CC1 (configuration not stated)
5) CCN(CC)CCNC(=S)Nc1ccc(Cl)cc1
6) O=C(O)c1cccc(NC(=O)c2ccc3c(c2)C(=O)N(C2CCCCC2)C3=O)c1
7) CCCCNC(=O)c1ccc(NS(=O)(=O)c2ccccc2)cc1
8) CCOC(=O)c1noc2ncnc(N(CCC(=O)OC)c3ccccc3)c12
compound no. | 1 | 2 | 3 | 4 | 5 | 6 | 7 | 8
FEN1 inhibitor | -11% | 2% | 7% | 11% | 0% | 2% | 7% | 11%
N370S GC | 1% | -2% | . | -10% | 10% | 1% | 11% | .

Reprinted at random: 6 records from the list
2) CN(C)S(=O)(=O)Oc1cc(Cl)ccc1C(=O)Nc1ccc(F)cc1F
6) O=C(O)c1cccc(NC(=O)c2ccc3c(c2)C(=O)N(C2CCCCC2)C3=O)c1
3) CCCCOC(=O)CNc1n[nH]c(=S)[nH]c1=O
7) CCCCNC(=O)c1ccc(NS(=O)(=O)c2ccccc2)cc1
5) CCN(CC)CCNC(=S)Nc1ccc(Cl)cc1
4) COc1ccc(C(=O)NC2CCc3ccccc32)cc1OC1CCN(C(C)C)CC1 (configuration not stated)
compound no. | 2 | 6 | 3 | 7 | 5 | 4
FEN1 inhibitor | 2% | 2% | 7% | 7% | 0% | 11%
N370S GC | -2% | 1% | . | 11% | 10% | -10%

The listing continues.
9) O=C(c1ccc(OC2CCN(CCO)CC2)cc1)N1CCCC1
10) CC(C)NC(=O)CSc1nc(N)c(NC(=O)c2ccco2)c(=O)[nH]1
11) Cc1cc(C)n(C(C)CC(=O)Nc2ccc(C)c(F)c2)n1 (configuration not stated)
12) O=C(NCC1CCCO1)c1ccc(CNS(=O)(=O)c2cccc(Cl)c2)cc1 (configuration not stated)
13) O=C(/C=C/c1ccco1)Nc1ccc(Oc2ccccc2)cc1
14) COc1ccccc1CN1CC(C(=O)N(CCO)Cc2cccs2)CCC1=O (configuration not stated)
15) OCCN(Cc1ccccc1)CC1CCCCC1
16) Nc1nnnn1/N=C/c1ccc(Br)cc1
compound no. | 9 | 10 | 11 | 12 | 13 | 14 | 15 | 16
FEN1 inhibitor | 4% | 2% | 0% | 4% | -22% | -7% | -3% | -4%
N370S GC | 0% | -9% | . | 16% | 14% | 0% | -2% | 3%

17) CCOc1cccc(-c2nnc3sc(-c4ccco4)nn23)c1
18) COc1cccc(CN2CC(C(=O)NCCn3ccc(C)n3)CCC2=O)c1 (configuration not stated)
19) Cc1cccc(C)c1NC(=O)c1ccc(-c2ccc(Cl)cc2Cl)o1
20) CC(C)Oc1ccc(CNC(=O)C2CCN(Cc3cc4ccccc4n3Cc3ccccc3)CC2)cc1
21) O=C(Nc1ccccc1N1CCCC1)C1CCN(S(=O)(=O)c2cccc(C(F)(F)F)c2)CC1
22) c1ccc(-c2nn3c(C4CCCCC4)nnc3s2)cc1
23) O=C(N1CCCC1)n1c(Cc2ccccc2)nc2ccccc21
24) COc1ccc(NC(=O)c2sc3nc[nH]c(=O)c3c2C)cc1OC
compound no. | 17 | 18 | 19 | 20 | 21 | 22 | 23 | 24
FEN1 inhibitor | 0% | -2% | -3% | 0% | 2% | 2% | -4% | 1%
N370S GC | 14% | -8% | 22% | . | 3% | 26% | 7% | .

Three compounds from above, sorted by their value in FEN1 inhibitor, ascending:
no.	compound	FEN1 inhibitor
18	COc1cccc(CN2CC(C(=O)NCCn3ccc(C)n3)CCC2=O)c1 (configuration not stated)	-2%
17	CCOc1cccc(-c2nnc3sc(-c4ccco4)nn23)c1	0%
22	c1ccc(-c2nn3c(C4CCCCC4)nnc3s2)cc1	2%

Carrying on.
25) Cc1oc(-c2cccc(Cl)c2)nc1CN1CCC(C(=O)NCCc2ccc(Cl)cc2)CC1
26) Fc1ccc(NCc2n[nH]c(=S)n2Cc2ccccc2)cc1
27) O=C(NCCc1ccc(Cl)cc1)c1ccc(CS(=O)Cc2ccccc2Cl)o1 (configuration not stated)
28) CCSC1=N/C(=C\c2cccc(F)c2)C(=O)S1
29) Cc1c(Cl)cccc1NC(=O)CSc1nc(=O)n(CCN2CCOCC2)c2c1CCC2
30) CCCCNC(=O)c1onc(CCl)c1C(=O)OC
31) CCCN(CC(=O)Nc1ccc(C(N)=O)cc1)CC(=O)Nc1cc(Cl)ccc1Cl
32) CC(=O)C[C@@H](c1ccccc1)c1c(O)c2ccccc2oc1=O
compound no. | 25 | 26 | 27 | 28 | 29 | 30 | 31 | 32
FEN1 inhibitor | -5% | 2% | -13%&7% | -3% | -14% | -4% | -3% | .
N370S GC | . | 11% | -5% | -6% | . | 0% | -3% | 0%

33) Cn1c(=O)c(=O)n(C)c2cc(N3CCCCC3)c(NS(=O)(=O)c3ccc([N+](=O)[O-])cc3)cc21
34) CCc1nc(SCc2cc(Cl)ccc2OC)n[nH]1
35) Cc1cnc(CN(C)Cc2c(C(=O)N3CCCCCCC3)nc3ccc(Cl)cn23)[nH]1
36) COc1cccc2sc(NC(=O)c3ccc(S(=O)(=O)N4CCOCC4)cc3)nc12
37) COc1ccc(S(=O)(=O)N(CC(=O)O)Cc2ccccc2)cc1OC
38) COc1ccc(NS(=O)(=O)c2ccc(F)c(Cl)c2)cn1
39) O=C(N/N=C/c1ccoc1)c1ccccc1Br
40) CC(=O)c1c(C)[nH]c(C(=O)COC(=O)c2cccc(S(=O)(=O)N(C)c3ccccc3)c2)c1C
compound no. | 33 | 34 | 35 | 36 | 37 | 38 | 39 | 40
FEN1 inhibitor | -3% | -1% | -4% | 7% | -7% | -8% | -10% | -10%
N370S GC | 0% | 24% | -19% | -18% | 6% | -11% | 0% | -1%

41) CC(=O)c1cccc(NC(=O)COC(=O)Cn2cnc3ccccc32)c1
42) Nc1nc(Cl)nc2c1ncn2[C@@H]1O[C@H](CO)[C@H](O)[C@H]1O
43) CC(=O)Nc1ccc(NC(=O)C2CCN(S(=O)(=O)c3cccc4nonc34)CC2)cc1
44) O=C(CSc1nncs1)Nc1nnc(-c2ccccc2)o1
45) COc1ccc(C2C(C(=O)NCc3cccnc3)c3ccccc3C(=O)N2C)cc1OC (configuration not stated)
46) CCOc1ccc(CN(C)c2ccc(S(=O)(=O)N3CCN(C)CC3)cc2[N+](=O)[O-])cc1OC
47) CC(NC(=O)c1ccc(Cn2c(SCc3ccccc3)nc3cccnc32)cc1)c1ccccc1 (configuration not stated)
48) CCN(CC)S(=O)(=O)c1ccc(C(=O)Nc2cc(C)cc(C)c2)cc1
compound no. | 41 | 42 | 43 | 44 | 45 | 46 | 47 | 48
FEN1 inhibitor | -19% | . | -12% | 5% | -11% | -1% | 8% | -18%
N370S GC | . | 2% | 2% | 0% | 2% | . | . | -2%

49) CC(=O)C1=C(C)NC(=O)CC1c1ccc(Br)cc1 (configuration not stated)
50) CCNCc1cc(Br)c(OCC(=O)Nc2ccccc2)c(OC)c1
51) Cc1ccc(N2CC(NC(=O)c3ccccc3C(F)(F)F)CC2=O)cc1C (configuration not stated)
52) COc1ccc(/C=C/C(=O)c2cccc(-n3cnnn3)c2)cc1O
53) O=C(CN1C(=O)/C(=C/c2ccccc2)SC1=S)Nc1cccnc1
54) O=S(=O)(c1ccccc1)N1CCC(N2CCCCCC2)CC1
55) CC(=O)c1c(C)[nH]c(C(=O)Nc2nc(-c3ccc(-c4ccccc4)cc3)cs2)c1C
56) O=C(CCCCn1c(=O)[nH]c2ccccc2c1=O)N1CCN(c2ncccn2)CC1
compound no. | 49 | 50 | 51 | 52 | 53 | 54 | 55 | 56
FEN1 inhibitor | -2% | -3% | -5% | 7% | -3% | -3% | -7% | 0%
N370S GC | 5% | -2% | . | 1% | 4% | -16% | -7% | -17%

57) CCNC(=O)NC1(C(=O)Nc2ccc3c(c2)CCC3)CCCCC1
58) CCCOP(=O)(c1ccc(N(C)C)cc1)C(Nc1ccccc1)c1ccc(C)cc1 (configuration not stated)
59) O=C(Nc1cccc(C(F)(F)F)c1)n1cc(-c2ccccn2)c(N2CCOCC2)n1
60) COc1cc(OC)c(OC)cc1CNC(=O)c1ccc(S(=O)(=O)N2CCCCC2)cc1
61) N#CCc1ccc(NC(=O)CSc2nnc(C3CC3)n2C2CC2)cc1
62) CCOc1cccc2cc(C(=O)N3CCN(C/C=C/c4ccccc4)CC3)c(=O)oc12
63) COc1ccc(C2C=C(Nc3ccccc3)C(=O)N2c2ccccc2)cc1OC (configuration not stated)
64) O=C(Cn1c(=O)oc2cc(S(=O)(=O)N3CCCC3)ccc21)NCc1ccc(F)cc1
compound no. | 57 | 58 | 59 | 60 | 61 | 62 | 63 | 64
FEN1 inhibitor | 2% | -20% | -8% | -3% | -2% | -19% | -21% | -5%&18%
N370S GC | 8% | ? | -14% | . | . | -8% | -28% | -7%

65) C[N+](C)(C)CCOC(N)=O
66) Cc1c(CCOC(=O)c2cc([N+](=O)[O-])ccc2Cl)sc[n+]1CCCCS(=O)(=O)[O-]
67) COCCCNC(=O)C1CCN(Cc2cc3ccccc3n2Cc2cccc(Cl)c2)CC1
68) CCN(CC)S(=O)(=O)c1ccc(Cl)c(OC)c1
69) c1coc(CN(Cc2ccco2)c2ncnc3c2oc2ccccc23)c1
70) COC(=O)c1cc(NS(=O)(=O)c2ccc3c(c2)c(=O)n(C)c(=O)n3C)cc(C(=O)OC)c1
71) CN(C(=O)COC(=O)c1ccc([N+](=O)[O-])cc1Cl)C1CCCCC1
72) Cc1c2oc3c(C)ccc(C(=O)NC4C(=O)NC(C(C)C)C(=O)N5CCCC5C(=O)N(C)CC(=O)N(C)C(C(C)C)C(=O)OC4C)c3nc-2c(C(=O)NC2C(=O)NC(C(C)C)C(=O)N3CCCC3C(=O)N(C)CC(=O)N(C)C(C(C)C)C(=O)OC2C)c(N)c1=O (configuration not stated)
compound no. | 65 | 66 | 67 | 68 | 69 | 70 | 71 | 72
FEN1 inhibitor | 8% | -12% | -18% | 1% | -27% | -13% | -3% | .
N370S GC | -16% | -1% | . | -5% | 2% | -11% | -1% | -15%

73) COCCNC(=O)CCCn1c(=O)c2cc(OC)c(OC)cc2n(CC(=O)Nc2ccc(F)cc2)c1=O
74) N#Cc1ccc(NC(=O)Cn2cnc(S(=O)(=O)N3CCOCC3)c2)cc1
75) CCOc1cc2[nH]c(=S)n(CCC(=O)NCc3ccco3)c(=O)c2cc1OCC
76) COc1ccc(C2=NCCn3cccc32)c(OC)c1
77) CC(C)C(=O)NC(=S)Nc1ccccc1N1CCN(C(=O)c2ccccc2)CC1
78) C[C@@](Cc1ccc(O)c(O)c1)(NN)C(=O)O
79) CCOc1ccc(S(=O)(=O)NCc2cccnc2)cc1NC(=O)c1ccccc1F
80) COCCCNc1nc2ccccc2nc1NS(=O)(=O)c1ccc(C)c(C)c1
compound no. | 73 | 74 | 75 | 76 | 77 | 78 | 79 | 80
FEN1 inhibitor | 4%&-10% | -4% | 11% | 1% | -8% | 1% | 3% | -9%
N370S GC | 0% | 21% | 0% | -1% | -14% | 8%&-7%&-10%&-13% | -1% | 7%

81) Cc1ccc(CNC(=O)CCS(=O)(=O)c2ccc3c(c2)oc(=O)n3C)cc1
82) Cc1nc2c(ccc3nc(NC(=O)c4ccc(S(=O)(=O)N(C)C)cc4)sc32)s1
83) COc1ccccc1CNc1ccc(-c2nc(C(C)C)no2)cc1[N+](=O)[O-]
84) COCn1c(-c2ccc(OC)c(OC)c2)nc2ccccc21
85) O=C(NCCc1ccccc1)C(c1ccc(F)cc1)N(C(=O)c1csnn1)C1CC1 (configuration not stated)
86) O=C(COC(=O)/C=C/c1ccco1)NCc1ccc(Cl)cc1Cl
87) O=C(Nc1nnc(-c2ccc(F)cc2)o1)C1CCCN1S(=O)(=O)c1cccs1 (configuration not stated)
88) O=C(OCCN1C(=O)c2cccc3c(N4CCOCC4)ccc(c23)C1=O)c1ccccc1Cl
89) CC(C)(C)c1ccc(C(=O)Nc2ccc(-c3nc4cc(Cl)ccc4o3)cc2)cc1
90) COc1ccc(CNC(=O)c2cc(C3CC3)nc3c2c(C)nn3-c2cccc(Cl)c2C)cc1
91) Cc1ccc(S(=O)(=O)N2CCN(C(=O)CSCc3ccc(C(C)C)cc3)CC2)cc1
compound no. | 81 | 82 | 83 | 84 | 85 | 86 | 87 | 88 | 89 | 90 | 91
FEN1 inhibitor | 2% | -7% | -6% | 13% | 6% | 1% | -3% | -20% | 8% | 0% | -25%
N370S GC | -5% | 8% | . | 5% | 0% | . | -13% | 17% | . | . | .
